# LANA-H2A inh: blocks KSHV LANA binding to histone H2A/H2B; 320,000 tested, 0.6% active; cell-free LANA-H2A/H2B peptide, fluorescence polarization; inhibition, % (test concentration not listed); in the data active = inhibition mostly above about 10%, no sharp cut-off; inactive = mostly below about 6.7%;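 note: stock transfer was 7.5 nL into about 10 µL; 0% = median of vehicle wells and 100% = median of positive control wells; one replicate is shown; the record names a cut of 25% in any replicate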
# ALR H2O2 inh: blocks human ALR sulfhydryl oxidase activity; inhibition, % (no concentration beside the values); purified ALR, DTT oxidation, H2O2 HRP-luminol luminescence; AID 485317; P55789; 290,000 tested, 3.8% active;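 active = mean and each replicate at 75% or more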;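 note: stock transfer was 7.5 nL into about 7.5 µL; 0% = neutral wells and 100% = wells with inactivated enzyme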
# Target sequence (P55789 whole entry, looked up): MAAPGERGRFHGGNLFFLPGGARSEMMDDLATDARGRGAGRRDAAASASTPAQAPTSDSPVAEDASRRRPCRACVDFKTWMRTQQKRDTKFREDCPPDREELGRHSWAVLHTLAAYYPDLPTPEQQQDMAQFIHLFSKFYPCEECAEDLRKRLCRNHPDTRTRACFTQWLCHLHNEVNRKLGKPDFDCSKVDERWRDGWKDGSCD
# FGF22 binding: binders of recombinant human FGF22 by thermal shift. SYPRO orange fluorescence; percent of sucrose octasulfate shift, DMSO zero. calls only at 9.99 µM. 340,000 tested, 1.5% active;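 active = melting point raised past a set limit in the mean and every replicate; three in four hits are not shown here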
# Target sequence (Q9HCT0 whole entry, looked up): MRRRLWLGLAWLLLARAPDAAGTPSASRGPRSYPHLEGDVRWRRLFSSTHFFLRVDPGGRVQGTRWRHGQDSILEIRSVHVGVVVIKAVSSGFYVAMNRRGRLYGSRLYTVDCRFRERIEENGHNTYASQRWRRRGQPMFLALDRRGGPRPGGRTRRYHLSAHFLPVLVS
# HNF4A DNA FP: change in binding of human HNF4 alpha to DNA | P41235 | HNF4a-FITC DNA binding, fluorescence polarization, 1 h | activity change, % at 10 µM | 360,000 tested, 0.3% active; in the data active = activity change above about 30%, passing the limit was not always enough;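 note: controls were the assay level and a saturating level of protein; the project sought stronger binding though the title names inhibitors; some compounds called inactive have numbers as strong as hits; positive values seem to mean higher polarization but the record does not say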
# Beta2AR agonist: human beta-2 adrenergic receptor agonism by FAP; P07550; Am2.2-beta2AR cells, FAP receptor internalization, flow cytometry; reference of the scale not given here; response, % (no concentration beside the values); 340,000 tested, 0.43% active; AID 504454;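 active = response above a set limit, near 3 SD of response in nonfluorescent compounds, cut at about 42% in these data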;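 note: stock transfer was 100 nL into about 11 µL; a reference agonist was the positive control; negative values mostly stem from fluorescent compounds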
# Target sequence (P07550 whole entry, looked up): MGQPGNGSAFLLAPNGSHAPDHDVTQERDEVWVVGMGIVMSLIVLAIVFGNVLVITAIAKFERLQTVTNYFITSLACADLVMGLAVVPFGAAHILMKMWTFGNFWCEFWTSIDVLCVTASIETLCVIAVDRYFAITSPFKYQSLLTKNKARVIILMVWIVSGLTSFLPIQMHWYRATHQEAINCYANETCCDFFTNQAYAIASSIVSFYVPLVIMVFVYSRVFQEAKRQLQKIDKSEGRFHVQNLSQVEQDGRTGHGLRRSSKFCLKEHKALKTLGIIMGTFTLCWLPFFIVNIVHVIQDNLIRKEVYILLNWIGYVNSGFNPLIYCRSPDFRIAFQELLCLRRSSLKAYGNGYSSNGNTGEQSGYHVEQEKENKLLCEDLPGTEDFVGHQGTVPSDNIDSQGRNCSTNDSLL
# Ecoli growth: E. coli growth inhibition | Escherichia coli growth, OD600, 23 h; active compounds read low | OD600 absorbance (test concentration not listed) | 330,000 tested, 0.21% active | AID 1053175;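 active = OD600 absorbance below the run mean of sample wells minus 3.6 SD, in any replicate, cut at about 0.56 in these data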;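 note: stock transfer was 300 nL into about 60 µL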
# UCH37 DUB inh: human UCH37 deubiquitinating enzyme inhibition | Q9Y5K5 | purified proteasome/UCH37, Ub-AMC cleavage fluorescence | inhibition, % (test concentration not listed) | 330,000 tested, 0.33% active | AID 588478;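 active = mean of two replicates above 20%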;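 note: 0% = compound-free wells with enzyme and 100% = wells lacking proteasome; stock transfer was 100 nL into about 20 µL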
#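 system = Proteasome-associated human UCH37 deubiquitinase | amount = 0.15 nM proteasome as dispensed | medium = pH 7.4 Tris-HCl (50 mM) with ovalbumin, ATP-MgCl2, DTT | incubation = 30 min preincubation with enzyme, 25 min cleavage at room temperature | detection = AMC fluorescence 355/460 nm | read-out basis = percent inhibition | controls = no-proteasome and no-compound wells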
# Active calls of the source: *; i = inactive; · = not tested or not shown. An excerpt; rates above refer to the full screens.
entry	SMILES	LANA-H2A inh	ALR H2O2 inh	FGF22 binding	HNF4A DNA FP	Beta2AR agonist	Ecoli growth	UCH37 DUB inh
1	O=C(Cn1c(Cc2ccccc2)nc2ccccc21)NCc1ccc2c(c1)OCO2	-3.7	-8	·	0.6	10	·	-0.3
2	Cc1ccc(C(=O)NC(C)c2ccc(F)cc2)cc1 (centres undefined)	5.7	23	i	-0.8	1	0.72	0.6
3	CCOC(=O)N1CCN(c2c(NCc3ccc(F)cc3)c(=O)c2=O)CC1	-1.3	7	i	-0.9	-3	0.73	2.7
4	O=c1c2cnn(-c3ccccc3)c2ncn1Cc1cccc(Cl)c1	2.2	-4	i	5.5	-6	0.73	5.4
5	O=C(O)c1cccc(Cn2c(Cl)c(/C=N/NC(=O)c3ccccc3Cl)sc2=O)c1	1.1	28	·	-1.3	4	·	·
6	COc1ccc(COC(=O)c2ccc(S(=O)(=O)N3CCC(C)CC3)cc2)cc1	-4.1	-6	i	0.5	3	·	·
7	CC(=O)c1sc(NC(=O)CS(=O)(=O)c2ccccc2)nc1-c1ccccc1	-2.0	·	i	2.9	0	0.68	6.5
8	O=C(c1c(F)cccc1F)N1CCCc2ccccc21	1.5	1	i	-1.5	-2	0.61	2.9
9	COc1ccccc1OCC(=O)Nc1cc(S(=O)(=O)N2CCOCC2)ccc1N1CCCCC1	-3.5	-8	i	3.9	11	0.71	4.2
10	CSCCC(NC(N)=O)C(=O)NCc1ccccc1Cl (centres undefined)	3.1	-7	·	0.1	-5	0.76	2.4
11	CNC(=O)c1cc(S(=O)(=O)Nc2ccc3c(c2)OCO3)ccc1C	2.4	11	i	2.2	4	0.71	1.7
12	Cc1ccc(S(=O)(=O)NCCn2nc(C)nc2C)cc1	5.3	-1	i	4.3	8	0.66	-0.5
13	COc1ccc(C2NC(c3ccc(OC)cc3)C(c3ccccc3)C(=O)C2c2ccccc2)cc1 (centres undefined)	-2.1	-2	·	-0.5	17	·	6.5
14	COC(=O)CCN1CCC2CC1c1cc(-c3cccc(C)c3)ccc12 (centres undefined)	·	·	i	2.0	-2	·	·
15	Nc1ccccc1S(=O)(=O)NC1=NCCCCC1	-2.6	-1	·	0.9	3	0.71	0.9
16	COc1ccc(CN2CCNC(=O)C2CC(=O)NC2CCOCC2)c(F)c1 (centres undefined)	-8.0	-15	i	2.9	-3	0.72	-2.8
17	O=C(O)c1ccc(NC2=C(N3CCOCC3)C(=O)c3ccccc3C2=O)cc1	1.0	-60	·	1.0	0	0.69	34*
18	O=C(CNC(=O)Cc1ccccc1)NCC(=O)N1CCN(C(c2ccccc2)c2ccccc2)CC1	2.3	-47	i	0.3	-7	0.66	-1.1
19	COc1cccc(NC(=O)COc2ccc3c(c2)CCC3)c1	-6.1	-5	i	-3.5	0	0.62	-0.1
20	O=C(Nc1cccnc1)c1ccc(Cl)c(S(=O)(=O)N2CCCCC2)c1	2.2	-3	i	1.5	4	0.7	1.7
21	COc1ccc(N(C)S(=O)(=O)c2cccc(C(=O)OCC(=O)c3c(N)n(C)c(=O)n(C)c3=O)c2)cc1	1.7	-6	i	2.9	25	0.68	0.7
22	CC(C)(Oc1ccc(Cl)cc1)C(=O)OCC(=O)Nc1ncc(Cl)cc1Cl	-2.3	-18	·	-1.7	3	0.71	3.5
23	C/C=C(\C)C(=O)N[C@@H](C)CN1C2=NC[C@H](C(C)C)N2C[C@H]1Cc1ccc(OC)cc1	·	·	i	-0.8	-5	·	3.2
24	COCC(=O)N1CCC(Oc2cccc(C(=O)NCc3ccccn3)c2)CC1	3.2	-3	i	5.0	-12	·	·

# Some of these compounds in order of their number in Beta2AR agonist, ascending:
item | SMILES | LANA-H2A inh | ALR H2O2 inh | FGF22 binding | HNF4A DNA FP | Beta2AR agonist | UCH37 DUB inh
16 | COc1ccc(CN2CCNC(=O)C2CC(=O)NC2CCOCC2)c(F)c1 (centres undefined) | -8.0 | -15 | i | 2.9 | -3 | -2.8
7 | CC(=O)c1sc(NC(=O)CS(=O)(=O)c2ccccc2)nc1-c1ccccc1 | -2.0 | · | i | 2.9 | 0 | 6.5
15 | Nc1ccccc1S(=O)(=O)NC1=NCCCCC1 | -2.6 | -1 | · | 0.9 | 3 | 0.9
9 | COc1ccccc1OCC(=O)Nc1cc(S(=O)(=O)N2CCOCC2)ccc1N1CCCCC1 | -3.5 | -8 | i | 3.9 | 11 | 4.2
13 | COc1ccc(C2NC(c3ccc(OC)cc3)C(c3ccccc3)C(=O)C2c2ccccc2)cc1 (centres undefined) | -2.1 | -2 | · | -0.5 | 17 | 6.5

# Remaining list, next part:
entry	SMILES	LANA-H2A inh	ALR H2O2 inh	FGF22 binding	HNF4A DNA FP	Beta2AR agonist	Ecoli growth	UCH37 DUB inh
25	CCOc1ccc(S(=O)(=O)NCCC(=O)NCc2ccco2)cc1	-11	-3	·	1.8	-23	0.72	3.4
26	O=[N+]([O-])c1ccc2c(c1)oc1ccccc12	-1.4	1	·	-1.1	0	0.72	5.8
27	O=C(CCOc1ccccc1)Nc1ccnn1C1CCN(Cc2ccc(O)cc2)CC1	2.0	2	i	3.2	-1	0.73	2.3
28	COc1ccc(CNC(=O)c2cc(C3CC3)on2)cc1	0.2	8	i	0.8	2	0.71	1.6
29	COCCn1c(SCC(=O)Nc2ccccc2)nc2c1c(=O)[nH]c(=O)n2C	-0.1	63	i	-2.8	-7	0.7	3.1
30	O=C(NC(Cc1ccccc1)C(=O)O)OCC1c2ccccc2-c2ccccc21 (centres undefined)	1.6	·	i	3.0	-6	0.67	6.2
31	C=CCn1c(SCC(=O)N(CC)C2CCS(=O)(=O)C2)nc2sc3c(c2c1=O)CCC3 (centres undefined)	5.0	2	i	0.9	0	0.68	5.6
32	CCC1CCCCN1C(=O)CSc1nnc(CNC(=O)c2cc(OC)c(OC)c(OC)c2)o1 (centres undefined)	3.8	4	·	-0.5	-10	0.74	1.4
33	COc1ccc(N=Cc2c(O)c3ccccc3oc2=O)cc1	-0.7	8	i	1.3	-1	0.69	-5.1
34	Cc1ccc(S(=O)(=O)/N=C/c2cc(Br)ccc2O)cc1	1.9	-1	i	-3.6	2	·	·
35	Cc1cccc(-c2nc(CS(=O)CC(=O)NC(C)CCc3ccccc3)c(C)o2)c1 (centres undefined)	-0.3	92*	i	-1.6	-3	0.64	1.6
36	Cc1ccc(SCc2cc(=O)[nH]c(N3CCOCC3)n2)cc1	17*	30	·	-0.1	-7	0.67	5.7
37	Cc1cc(C)c(C)c(S(=O)(=O)N2CCC(C(=O)N3CC(C)CC(C)C3)CC2)c1C (centres undefined)	0.5	-1	i	3.3	-1	0.66	2.4
38	O=C(Nc1ccc(N2CCOCC2)cc1)C1CC1	0.1	4	·	2.4	1	0.67	3.7
39	CCCNC(=O)C1(CC2CC(c3ccccc3)=NO2)CCN(C(=O)c2cc(OCC)c(OCC)c(OCC)c2)CC1 (centres undefined)	-1.0	·	i	8.6	-3	·	·
40	Cc1ccc(-c2nc(NC(=O)c3nn(C)cc3[N+](=O)[O-])sc2C)cc1C	-2.2	-6	i	2.2	80*	0.68	3.2
41	COc1ccc(C)cc1NC(=O)CSc1nc(SC)ns1	-3.2	-2	·	2.6	-4	0.76	2.5
42	COc1cccc(-c2nc(N3CCN(Cc4ccccc4)CC3)c3ccccc3n2)c1O	1.2	3	i	-1.7	0	0.72	3.4
43	CCCc1cc(=O)[nH]c(SCC(=O)N(C)CC(=O)Nc2ccccc2CC)n1	-8.6	-2	·	1.3	-2	0.72	0.1
44	O=C(CSc1nnc2n1CCCN2)c1ccc(Cl)cc1	2.7	31	·	2.3	-1	0.68	-24
45	C=C1SC(Nc2c(C)cc(C)cc2C)=NC12CCCCC2	-4.4	·	i	1.8	33	·	·
46	O=C(Cc1ccc(NC(=O)C2CCN(C(=O)c3ccccc3)CC2)cc1)Nc1ccc(C(=O)N2CCOCC2)cc1	·	·	i	2.4	-5	0.69	0.1
47	COc1ccc(NC(=O)c2ccc(-n3cncn3)c([N+](=O)[O-])c2)cc1OC	-3.6	-12	i	-0.1	-2	0.61	2.4
48	Nc1cnc(Nc2ccc(Br)cc2)nc1N	1.4	96*	i	5.3	13	·	·

# Single entries from the entries so far.
# Under UCH37 DUB inh, compound 47 reads 2.4
# Under HNF4A DNA FP, compound 48 reads 5.3
# Under ALR H2O2 inh, compound 41 reads -2

# (next part)
entry	SMILES	LANA-H2A inh	ALR H2O2 inh	FGF22 binding	HNF4A DNA FP	Beta2AR agonist	Ecoli growth	UCH37 DUB inh
49	CC1(C(=O)NNC(=O)c2ccc(=O)oc2)CC1Br (centres undefined)	1.2	69	i	-20	1	·	·
50	Cc1cc(NC(=O)c2ccccc2C)no1	1.5	-3	i	1.6	13	0.59	1.8
51	COc1ccc(/C=N/NC(=S)NCC2CCCO2)cc1 (centres undefined)	-0.1	53	i	-0.7	9	·	·
52	COc1ccc(NC(=O)Cn2ncn3c(cc4ccccc43)c2=O)c(OC)c1OC	0.5	-1	i	5.2	1	0.76	-2.1
53	Cc1ccc(C(=O)/C=C/Nc2ccccc2C(N)=O)cc1	-1.5	-2	·	1.1	-2	·	·
54	O=C(Oc1cccc(-n2cnnn2)c1)c1ccco1	-2.9	31	·	0.2	1	0.78	4.7
55	CN(C)CCOc1ccc(-c2c(-c3ccccc3)sc3ccccc23)cc1	0.8	-11	i	1.8	10	0.34*	0.7
56	O=C(/C=C/c1ccc(Cl)cc1Cl)NCCSCc1ccccc1	0.4	-1	·	3.7	-16	0.71	2.7

# 3 compounds picked at random from the list so far:
entry	SMILES	LANA-H2A inh	ALR H2O2 inh	FGF22 binding	HNF4A DNA FP	Beta2AR agonist	Ecoli growth	UCH37 DUB inh
49	CC1(C(=O)NNC(=O)c2ccc(=O)oc2)CC1Br (centres undefined)	1.2	69	i	-20	1	·	·
56	O=C(/C=C/c1ccc(Cl)cc1Cl)NCCSCc1ccccc1	0.4	-1	·	3.7	-16	0.71	2.7
50	Cc1cc(NC(=O)c2ccccc2C)no1	1.5	-3	i	1.6	13	0.59	1.8

# (list continues)
entry	SMILES	LANA-H2A inh	ALR H2O2 inh	FGF22 binding	HNF4A DNA FP	Beta2AR agonist	Ecoli growth	UCH37 DUB inh
57	O=C1CCC/C=C\C[C@@H](CC(=O)N(CCO)Cc2ccccc2)C(=O)N2CCC[C@H]2CO1	-0.1	0	i	2.0	2	·	1.0
58	COc1ccc(CN(CC(=O)NCC2CCCO2)C(=O)CNS(=O)(=O)c2ccccc2)cc1 (centres undefined)	-0.1	·	i	4.7	1	0.72	2.6
59	O=C(COC(=O)c1ccc2c(c1)S(=O)(=O)N=C1CCCCCN12)NCc1cccs1	-2.1	·	i	5.6	4	0.73	1.6
60	COc1ccc(C)cc1NC(=S)NNC(=O)c1ccccc1Cl	-3.1	77*	·	-0.9	7	0.73	2.0
61	Cc1cnc(CNC(=O)CC2C(=O)NCCN2Cc2ccccc2F)cn1 (centres undefined)	12	-8	i	-1.1	-3	0.68	-1.7
62	COc1cccc(CN2CCC(C(=O)Nc3ccc(-c4cccc(C)c4)cc3)CC2)c1O	-0.8	-3	i	2.8	0	0.67	4.2
63	COc1cc2cc(C)c(SCC(=O)N3CCN(C(=O)c4ccco4)CC3)nc2cc1OC	-7.5	-3	i	4.5	3	0.7	5.1
64	CCOC(=O)CNC(=O)CSc1nc2cccnc2n1C	-5.9	-3	·	0.4	3	0.72	1.3

# Screening results (PubChem)
